UCH37 DUB inh: inhibitors of human UCH37 deubiquitinase, primary screen, biochemical, Ub-AMC cleavage, fluorescence; inhibition, % (concentration not given with the values); AID 588478, 2011; Ubiquitin carboxyl-terminal hydrolase isozyme L5 (Homo sapiens), Q9Y5K5; purified proteasome/UCH37; hit rate 0.33% among 330,000;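 active = mean of two replicates above 20%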;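 also: 0% = compound-free wells with enzyme and 100% = wells lacking proteasome; stock transfer was 100 nL into about 20 µL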
Target sequence (Q9Y5K5 whole entry, looked up): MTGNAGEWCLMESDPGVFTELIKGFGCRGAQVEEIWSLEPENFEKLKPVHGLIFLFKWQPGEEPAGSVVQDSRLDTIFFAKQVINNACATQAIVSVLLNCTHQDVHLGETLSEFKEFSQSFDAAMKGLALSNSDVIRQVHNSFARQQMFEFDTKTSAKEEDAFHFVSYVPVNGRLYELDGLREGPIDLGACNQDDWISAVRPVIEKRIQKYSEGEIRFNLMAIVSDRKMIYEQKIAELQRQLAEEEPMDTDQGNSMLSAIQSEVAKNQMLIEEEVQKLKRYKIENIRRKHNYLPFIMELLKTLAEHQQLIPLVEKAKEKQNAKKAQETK
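Material: Human UCH37 enzyme supplied as purified proteasome complex | Schedule: 30 min compound-proteasome preincubation then 25 min substrate reaction, room temperature | Detection: AMC fluorescence from Ub-AMC cleavage, excitation 355 nm, emission 460 nm | Benchmarks: Wells without proteasome as full block, compound-free enzyme plus substrate as uninhibited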
T cruzi inh: inhibitors of intracellular T. cruzi growth, primary screen, luminescence, NIH3T3 host cells; T. cruzi beta-gal in NIH3T3, 90 h; inhibition, % (no concentration beside the values); hit rate 1.4% among 300,000; AID 1885, 2009;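 active = mean inhibition across valid replicates above about 55%, limit read from the data; inconclusive = mean below that limit but half or more replicates reach it; inactive = mean below it, under half of replicates reach it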;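 also: signal also drops with host cell toxicity which is not excluded here; 0% = plate median of DMSO wells and 100% = zero luminescence signal; higher percent means less beta-gal luminescence so fewer parasites; stock transfer was 50 nL into about 50 µL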
Beta cell apopt: inhibitors of cytokine-induced beta cell apoptosis, primary screen, luminescence. INS-1E cytokine-induced death, ATP luminescence, 48 h; percent of positive-control rescue, neutral wells zero. protection from apoptosis, % (concentration not given with the values). hit rate 0.8% among 300,000. AID 435005, 2010;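 active = all replicates at 75% or more, or half of them and the mean; inconclusive = half reach 75% but not the mean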;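 also: 0% = cytokine-treated negative control wells and 100% = positive control rescue; higher means more ATP so stronger rescue from cytokine killing; wells of about 40 µL received 100 nL stock; the first replicate is given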
Beta2AR agonist: beta2AR agonists driving receptor internalization, primary screen, cell-based, FAP fluorogen, flow cytometry | Am2.2-beta2AR cells; reference of the scale not given here | response, % (test concentration not listed) | hit rate 0.43% among 340,000;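 active = response above a set limit, near 3 SD of response in nonfluorescent compounds, cut at about 42% in these data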;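 also: stock transfer was 100 nL into about 11 µL; a reference agonist was the positive control; negative values mostly stem from fluorescent compounds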
Target sequence (P07550 whole entry, looked up): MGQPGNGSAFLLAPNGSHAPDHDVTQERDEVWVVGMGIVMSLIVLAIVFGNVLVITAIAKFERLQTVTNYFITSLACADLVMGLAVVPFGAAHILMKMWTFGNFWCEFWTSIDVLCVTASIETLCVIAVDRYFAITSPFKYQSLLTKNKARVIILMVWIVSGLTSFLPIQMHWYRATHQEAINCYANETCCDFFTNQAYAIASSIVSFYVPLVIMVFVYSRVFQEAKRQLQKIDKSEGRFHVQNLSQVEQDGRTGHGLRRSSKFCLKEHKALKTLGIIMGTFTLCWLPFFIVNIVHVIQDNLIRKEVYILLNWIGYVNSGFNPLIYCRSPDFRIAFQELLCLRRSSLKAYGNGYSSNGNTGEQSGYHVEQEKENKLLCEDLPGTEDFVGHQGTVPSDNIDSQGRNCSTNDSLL
RanGTP-Imp inh: inhibitors of RanGTP-importin-beta interaction, primary screen, biochemical, FRET, CFP-Ran, YFP-importin-beta, homogeneous. Ran GTPase (GTP-bound) - importin-beta complex. cell-free CFP-Ran/YFP-importin-beta FRET ratio. inhibition, % (test concentration not listed). hit rate 1.1% among 300,000. AID 2216, 2009;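 active = most replicates above 15%; inconclusive = exactly half above 15%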;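 also: 0% = DMSO wells and 100% = Ran loaded with GDP instead of GTP; wells of about 40 µL received 100 nL stock; the first replicate is given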
LANA-H2B inh: blockers of LANA interaction with H2A/H2B – biochemical, FP readout, HTS, primary screen | cell-free LANA-H2A/H2B peptide, fluorescence polarization | inhibition, % (no concentration beside the values) | hit rate 0.6% among 320,000 | AID 2629, 2010; in the data active = inhibition mostly above about 10%, no sharp cut-off; inactive = mostly below about 6.7%;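 also: stock transfer was 7.5 nL into about 10 µL; 0% = median of vehicle wells and 100% = median of positive control wells; one replicate is shown; the record names a cut of 25% in any replicate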
A1 inh: caspase 3/7 activation in MEF A1-2A-BIM cells, primary screen, A1 inhibitor project, cell-based, luminescence, HTS; Caspase-Glo 3/7 luminescence, 3 h; percent of clofoctol response, vehicle zero; hit rate 0.066% among 330,000; caspase activation, % (test concentration not listed); AID 2462, 2010;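 active = over half of replicate activation scores above 10%, or exactly half above 10 with the replicate mean above 10; inconclusive = replicate mean below 10 yet half the replicates above 10; inactive = over half of replicates below 10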;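 also: wells of about 30 µL received 50 nL stock; many hits fall short of the cut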
Calb FLC: C. albicans growth inhibition with fluconazole, primary screen, CaCi-2 strain, Alamar Blue fluorescence. growth inhibition, % (concentration not given with the values). AID 1979, 2009. hit rate 0.57% among 300,000. C. albicans CaCi-2 (fluconazole-resistant clinical isolate) + fluconazole, 48 h;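 active = most replicates above 75%; inconclusive = exactly half above 75%; inactive = most below 75%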;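 also: all wells also contain fluconazole at 8 µg/ml as a sub-toxic cotreatment; 0% = median of DMSO wells and 100% = median of geldanamycin control wells; wells of about 8 µL received 7.5 nL stock; the first replicate is given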
Numbers without * were called inactive; ? = inconclusive; · = not tested or not shown.

SMILES | UCH37 DUB inh | T cruzi inh | Beta cell apopt | Beta2AR agonist | RanGTP-Imp inh | LANA-H2B inh | A1 inh | Calb FLC
CCn1c(=N)c(S(=O)(=O)c2ccccc2)cc2c(=O)n3ccccc3nc21 | -287 | 6 | -3 | 3 | 170* | 3.2 | 0.8 | 0
Cc1nn(CCO)c2c1C(=O)CCC2 | 3.2 | 1 | -4 | -5 | 2.4 | -0.9 | 0.0 | -10
O=C(c1cc(=O)[nH]c2ccccc12)N1CCN(c2ccc([N+](=O)[O-])cc2)CC1 | 14 | -17 | 3 | 5 | -0.2 | 11 | -0.1 | -2
CCC1(CC)Cc2ccccc2C(=C(C#N)C#N)N1 | 2.0 | 11 | -3 | 6 | ? | -2.5 | -0.2 | 8
Fc1ccc(-c2csc(N3CCSCC3)n2)cc1 | 2.6 | 11 | -2 | -4 | -3.7 | 0.5 | -0.6 | 2
Cc1n[nH]c(=O)nc1N/N=C/c1ccc(O)c([N+](=O)[O-])c1 | · | -8 | 0 | 9 | -1.1 | 1.1 | -5.5 | 1
CC1CC(C)CN(C(=O)COC(=O)c2cc(S(=O)(=O)N3CCOCC3)ccc2F)C1 (stereo unspecified) | 2.1 | 13 | · | 6 | 2.6 | 5.5 | -0.8 | -6
Cc1ccc(Cl)cc1N1CCN(Cc2nc3ccsc3c(=O)[nH]2)CC1 | 2.5 | 22 | -2 | -3 | -20 | 2.5 | 1.0 | 0
Cc1c(NC(=S)Nc2ccccc2C(F)(F)F)cccc1[N+](=O)[O-] | 2.2 | 3 | 0 | -4 | -0.9 | 2.1 | -0.6 | -1
CN1CCN(S(=O)(=O)c2ccc(NC(=O)c3cccc(F)c3)cc2)CC1 | 1.7 | -20 | -4 | -2 | 0.2 | -5.7 | -0.4 | 37
COc1ccc(/C=C2/SC(=S)NC2=O)cc1OCc1ccccc1 | 3.6 | 1 | 14 | 14 | ? | -2.4 | 0.2 | 59
Cc1ccccc1C(=O)N1CCC(C(=O)N2CCCc3ccccc32)CC1 | -2.7 | · | -3 | 6 | · | 5.6 | -0.1 | ·
O=C(/C=C/c1ccc(O)c(O)c1)c1ccccc1O | 4.9 | -17 | -3 | 14 | -0.7 | 4.2 | -8.1 | -11
COc1ccc(NC(=O)c2cccc(S(=O)(=O)N3CCOCC3)c2)cn1 | -0.6 | -21 | -1 | 9 | 4.2 | 2.9 | 0.8 | -2
CC(NS(=O)(=O)c1ccc([N+](=O)[O-])cc1)C(c1cccs1)N1CCOCC1 (stereo unspecified) | 4.4 | 21 | -5 | 4 | ? | -0.2 | -1.2 | 9
O=C(NCC1CCCO1)c1cnc(Cl)c(Cl)c1 (stereo unspecified) | -0.3 | 17 | -3 | -1 | -3.0 | 2.2 | 0.5 | -3
COCCNC(=O)[C@H]1N2C(=O)c3ccccc3C2SC1(C)C (stereo partly specified) | 2.1 | -1 | -9 | -2 | 7.0 | 2.1 | -0.6 | 2
Cc1ccc(C(=O)OCC(=O)c2ccc(Cl)s2)s1 | 1.2 | -10 | 0 | 6 | 0.6 | -19 | 0.1 | -10
CN(CCN1CCOCC1)C(=O)CC1C(=O)NCCN1Cc1ccccc1F (stereo unspecified) | -11 | -6 | 2 | 2 | -1.0 | 5.3 | 0.1 | 0
NCCNC(=O)Cc1ccc(NC(=O)Cc2ccc(Nc3ncnc4c3ncn4[C@@H]3O[C@H](CO)[C@@H](O)[C@H]3O)cc2)cc1 | 0.4 | · | 1 | 0 | · | -0.7 | ? | ·
Cc1cccc(NC(=O)c2ccccc2[N+](=O)[O-])n1 | 0.1 | -1 | -1 | 0 | -1.1 | 2.8 | -0.2 | -4
O=C(NCc1ccccc1)N1CCC(c2nc3ccccc3[nH]2)CC1 | 0.3 | -8 | -4 | -2 | 2.7 | 1.2 | 0.1 | -1
COc1cc2c(cc1NC(=O)COC(=O)CNS(=O)(=O)c1ccc(C)cc1)oc1ccccc12 | 0.9 | -12 | -3 | 3 | ? | 0.3 | -0.2 | 18
COC(c1ccccc1)(c1ccccc1)C(Oc1nccc(C)n1)C(=O)O (stereo unspecified) | -0.7 | -16 | -6 | 5 | 1.5 | 0.9 | 0.5 | -9
Cc1ccc(-c2ccc(OCC(=O)N3CCOCC3)cc2)cc1 | 4.6 | -5 | -3 | 1 | -1.4 | -7.0 | -2.2 | -4
CC(CN1CCN(c2ccccc2)CC1)c1ccccc1 (stereo unspecified) | 2.0 | -11 | 1 | 9 | -1.5 | 2.8 | 0.6 | -13
O=C1C(Cl)=C(N2CCN(Cc3ccccc3)CC2)C(=O)N1c1ccccc1 | 6.2 | -10 | -10 | 0 | -2.5 | 5.7 | -0.3 | 0
Cc1csc(NC(=O)c2c(-c3c(F)cccc3Cl)noc2C)n1 | 0.1 | · | -2 | 13 | · | -3.0 | 0.7 | ·
CC(=O)Nc1nc2c(C)cc(NC(=O)C3CCCCC3)cc2s1 | 2.7 | 15 | 1 | 5 | 8.3 | -1.8 | -0.2 | 19
CC(=O)c1ccc(NC(=O)COC(=O)c2ccccc2Sc2ccccc2C#N)cc1 | 1.7 | 11 | -2 | -6 | ? | -0.9 | -0.2 | 2

Next section (2 carried over from the part before).
SMILES | UCH37 DUB inh | T cruzi inh | Beta cell apopt | Beta2AR agonist | RanGTP-Imp inh | LANA-H2B inh | A1 inh | Calb FLC
CC(=O)Nc1nc2c(C)cc(NC(=O)C3CCCCC3)cc2s1 | 2.7 | 15 | 1 | 5 | 8.3 | -1.8 | -0.2 | 19
CC(=O)c1ccc(NC(=O)COC(=O)c2ccccc2Sc2ccccc2C#N)cc1 | 1.7 | 11 | -2 | -6 | ? | -0.9 | -0.2 | 2
CCOC(=O)COn1c(=O)c(-c2ccccc2)[n+]([O-])c2ccccc21 | -4.6 | -26 | -2 | 11 | -1.0 | -4.6 | -0.1 | ·
CC1CCN(C(=O)COC(=O)c2n[nH]c(=O)c3ccccc23)CC1 | 0.3 | · | -3 | 7 | · | -0.7 | 0.6 | ·
Cc1cccc2c(C(=O)N3CCN(c4ccccc4)CC3)cc(-c3ccncc3)nc12 | 1.9 | 45 | 10 | 16 | 1.2 | 0.1 | 0.5 | 34
Cc1cc(C)c(OCCCNCc2ccccc2)c(Br)c1 | 4.5 | 20 | -2 | 16 | -0.8 | 2.0 | 0.7 | 27
CCOC(=O)c1cc(C#N)c(Nc2ccc(C)cc2)nc1C(F)(F)F | -38 | 2 | -4 | -2 | 10 | -8.2 | -0.4 | 6
Cc1nc(CSc2nnc3scc(-c4ccccc4)n23)cs1 | 4.2 | 0 | -3 | -3 | -0.7 | 1.5 | · | 9
CCOC(=O)C1C(=O)CC(C)(O)C(C(=O)OCC)C1c1ccc(SC)cc1 (stereo unspecified) | 1.0 | 11 | 2 | 1 | -1.6 | 9.9 | -0.2 | 23
COc1ccc(C2NC(=O)C(C#N)=C(S)N2c2ccccc2)cc1OC (stereo unspecified) | 10 | -3 | -4 | -2 | 2.1 | -5.0 | -0.2 | 17
COCCCNC(=S)NC1CC2CCCC(C1)N2Cc1cccs1 (stereo unspecified) | 3.3 | -13 | · | -2 | 0.8 | 1.4 | 0.8 | 5
O=S(=O)(Nc1ccc(Cl)cc1)c1ccc2c(c1)CCO2 | 3.1 | 17 | · | -4 | -0.4 | -4.7 | 0.1 | -5
Cn1cc(-c2ccccc2C(N)=O)c(=O)c2ccccc21 | -3.1 | -12 | -4 | 0 | 3.5 | -0.5 | -0.1 | 19
Cc1c(NS(=O)(=O)c2cccs2)c(=O)n(-c2ccccc2)n1C | 0.4 | -13 | -1 | 4 | 3.2 | 0.3 | 0.4 | 11
O=C(c1cccn2c(=O)c3cc4ccccc4cc3nc12)N1CCN(c2ccccc2)CC1 | · | 4 | 2 | · | -7.0 | 13* | -0.8 | 13
CC(OC(=O)c1ccc(C(C)(C)C)cc1)C(=O)NC1CCCCC1C (stereo unspecified) | -3.2 | 5 | -3 | 2 | 5.4 | -1.4 | -0.8 | -1
CC1CN(S(=O)(=O)c2ccc(Cl)c(C(F)(F)F)c2)CC(C)O1 (stereo unspecified) | 5.5 | -1 | -1 | 7 | -1.1 | 2.1 | 0.7 | 14
Cc1cccc(C(=O)NCC(=O)OCC(=O)c2ccc(Br)s2)c1 | 4.9 | · | -5 | 2 | · | -0.9 | -0.1 | ·
CC1C(=O)Nc2ccc(S(=O)(=O)N3CCN(c4ccccc4F)CC3)cc2NC1=O (stereo unspecified) | 6.7 | -6 | 1 | -31 | ? | 3.1 | -0.4 | 2
OCCN1CCN(c2nc3ccccc3nc2-c2ccccc2)CC1 | -50 | -13 | 5 | -6 | -1.1 | 2.9 | -0.3 | 3
COc1ccc(CNC(=O)c2ccc(CS(=O)(=O)c3ccc(C)cc3)o2)cc1 | -2.0 | -14 | 0 | -7 | 1.9 | -2.1 | -1.5 | 1
Cc1cc(C)cc(Nc2c3c(nc4ncnn24)CCC3)c1 | 7.2 | 1 | -6 | -3 | -0.6 | -0.3 | 0.5 | 21
CCOC(=O)N1CCC(NS(=O)(=O)c2ccc3c(c2)OCC(=O)N3)CC1 | 1.3 | 1 | -3 | 0 | 1.4 | -0.4 | 0.9 | -4
CC(C)(C)C(=O)Nc1nc(C2CCCN2S(=O)(=O)c2ccc(Cl)cc2)cs1 (stereo unspecified) | 2.9 | 23 | 11 | -13 | 1.4 | -0.7 | 0.0 | 4
COc1ccc(CNC(=O)c2ccc(NS(=O)(=O)c3c(C)noc3C)cc2)cc1 | 1.4 | -7 | -1 | 0 | 2.1 | -1.8 | -0.6 | 21
COC(=O)COc1ccc(-c2ccc(F)cc2)cc1C=O | -5.3 | 1 | · | 1 | -2.1 | -1.7 | 0.6 | -19
COc1cccc(C(=O)Nc2ccc(N3CCN(Cc4ccccc4)CC3)cc2)c1 | 3.5 | 3 | 11 | 10 | -3.3 | 2.7 | -0.3 | 2
CC(C)(C)NC(=O)C(c1ccc(Cl)cc1)N(Cc1ccco1)C(=O)CCl (stereo unspecified) | · | -9 | 4 | 4 | -4.1 | -0.2 | 0.7 | -3
Cc1ccc2c(c1)c(-c1ccccc1)nc1nnnn12 | -1.7 | -10 | 8 | 4 | -0.2 | -2.7 | -0.5 | 38
COCCCn1cnnc1SC(C)C(=O)Nc1ccc(S(=O)(=O)N2CCOCC2)cc1 (stereo unspecified) | 4.1 | · | -3 | 2 | · | -3.5 | 0.8 | ·
COc1c(Cl)cc(Cl)cc1CNc1ccc(S(N)(=O)=O)cc1 | 2.0 | 16 | · | 1 | -1.7 | 0.1 | 1.4 | 28
O=C1C(=O)N(CCCO)C(c2ccc(Br)cc2)/C1=C(\O)c1ccc(Br)cc1 (stereo unspecified) | 9.7 | 3 | -4 | 0 | 0.7 | 4.8 | 0.4 | -1
O=C(NCC(=O)N1CCN(c2ncccn2)CC1)c1ccc(F)cc1 | -2.4 | · | 3 | -5 | · | -8.7 | -1.8 | ·
